gsp ag: qHTS for Agonist of gsp, the Etiologic Mutation Responsible for Fibrous Dysplasia/McCune-Albright Syndrome: qHTS. Potency, µM (highest dose often 76.9 µM), without a hit: top-dose activation (cAMP increase), actives largely listed as activators. 0.13% of 340,000 active. gsp mutant cells, cAMP HTRF, 30 min; control for the full effect not named in the record; active = well fitted activation curve with a large enough effect; inconclusive = small, poorly fitted or top-dose-only effect, or another doubt; inactive = no such curve, though single readings can be large or run the other way; cell line not stated here;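 note: phosphodiesterase inhibitor Ro 20-1724 added with compounds to block cAMP breakdown; potency is the fitted concentration of half-maximal effect; nearly all actives have a fitted effect of over 60% in size; about a fifth of the inactives were tested at one dose only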
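Cells stably selected in G418 were plated at 2000/well, grown 16-24 hr, then given compounds in DMSO with the PDE inhibitor […] (300 uM solution added) for 30 min at 37C; cAMP was read by HTRF.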
Sfp PPTase inh: qHTS Assay for Inhibitors of Bacillus subtilis Sfp phosphopantetheinyl transferase (PPTase). 3.5% of 310,000 active. AID 1490, 2009. Biochemical Sfp PPTase activity, qHTS. Potency, µM, without a hit: max response, negative = inhibition, usual class: inhibitors. 4'-phosphopantetheinyl transferase ffp (Bacillus subtilis), Q9F4F7; active = well fitted inhibition curve with a large enough effect; inconclusive = small, poorly fitted or top-dose-only effect, or another doubt; inactive = no such curve, though single readings can be large or run the other way;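 note: the enzyme is Sfp with the accession as filed and its product quenches rhodamine fluorescence; potency is the fitted concentration of half-maximal effect; 0% = enzyme reaction without inhibitor and -100% = no enzyme wells; top concentration of the series not given in the record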
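Step 1, compound plus 15 nM Sfp-PPTase, 15 min, room temperature. Step 2, add rhodamine-CoA (5 uM) and BHQ-2-YbbR (12.5 uM). Step 3, read 525/598 nm fluorescence at 0 and 30 min.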
Menin MLL FP FL: qHTS Assay for Inhibitors Targeting the Menin-MLL Interaction in MLL Related Leukemias: Competition With Fluorescein Labeled MLL-derived Peptide. 290,000 tested, under 10 active. Fluorescence polarization, fluorescein-MLL peptide displacement from menin. FP activity change, % at 61.4 µM; inconclusive = falling polarisation curve, or a change in total fluorescence; inactive = total fluorescence flat and polarisation flat or rising; no compound was filed as active; the % refers to the polarisation; negative = inhibition;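 note: % of control where 0% means no effect; inhibitors lower the polarisation; unlabelled MLL peptide was the positive control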
TRPV1 potentiator: HTS Assay for Compounds that Act as Potentiators of the Vanilloid Receptor 1. TRPV1-expressing cells, Fluo-8 calcium influx, capsaicin EC20 potentiation; host cell line not named in the record; control for the full effect not named in the record. potentiation, % at 8.33 µM. Transient receptor potential cation channel subfamily V member 1 (Homo sapiens), Q8NER1. 0.02% of 320,000 active; active means potentiation above 80%; inconclusive means 30% to 80%; inactive means below 30%; note: 0% is about no effect
Target sequence (Q8NER1 whole entry, looked up): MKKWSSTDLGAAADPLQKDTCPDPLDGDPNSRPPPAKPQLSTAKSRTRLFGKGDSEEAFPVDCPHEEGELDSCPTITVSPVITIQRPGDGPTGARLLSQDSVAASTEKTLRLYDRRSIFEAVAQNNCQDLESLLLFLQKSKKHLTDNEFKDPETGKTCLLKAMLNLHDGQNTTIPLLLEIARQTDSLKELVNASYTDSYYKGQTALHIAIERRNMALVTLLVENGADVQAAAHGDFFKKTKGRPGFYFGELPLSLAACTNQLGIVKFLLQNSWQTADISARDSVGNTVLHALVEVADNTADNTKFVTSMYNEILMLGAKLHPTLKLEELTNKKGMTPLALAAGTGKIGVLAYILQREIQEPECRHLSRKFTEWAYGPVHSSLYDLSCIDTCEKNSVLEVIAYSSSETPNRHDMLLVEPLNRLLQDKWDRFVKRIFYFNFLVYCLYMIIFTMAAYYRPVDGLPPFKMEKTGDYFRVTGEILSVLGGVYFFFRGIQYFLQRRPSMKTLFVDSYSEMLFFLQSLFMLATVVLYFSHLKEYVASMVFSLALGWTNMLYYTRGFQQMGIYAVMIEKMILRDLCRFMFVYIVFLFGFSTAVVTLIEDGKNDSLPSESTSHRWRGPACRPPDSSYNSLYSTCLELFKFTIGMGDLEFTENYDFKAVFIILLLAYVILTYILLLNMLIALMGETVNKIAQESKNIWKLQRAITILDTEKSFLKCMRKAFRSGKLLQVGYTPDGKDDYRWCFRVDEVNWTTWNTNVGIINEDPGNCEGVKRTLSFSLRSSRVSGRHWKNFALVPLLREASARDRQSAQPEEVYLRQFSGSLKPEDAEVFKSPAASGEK
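TRPV1-expressing cells were cultured overnight at 35.5C and loaded with Fluo-8 calcium dye for 40 to 90 min at room temperature. After a 10 s baseline, compound was added and calcium influx was read kinetically for 3 min (ex 480/em 520 nm).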
ClpP mod: qHTS Assay for Activators of ClpP; purified B. subtilis ClpP, FRET peptide cleavage, 20 min; AID 651965, 2013; Potency, µM (highest dose often 57.5 µM), for inactives: at the top dose activity change, negative = active; 1.9% of 340,000 active; ATP-dependent Clp protease proteolytic subunit (Bacillus subtilis (strain 168)), P80244; active = well fitted falling curve with a large enough effect; inconclusive = small, poorly fitted or top-dose-only effect; inactive = no such curve, though single readings can be large or run the other way; note: potency is the fitted concentration of half-maximal effect; the source files actives as falling curves though it sought activators and does not explain the sign; nearly all actives have a fitted effect of over 65% in size; many hits overshoot -100%
Target sequence (P80244 whole entry, looked up): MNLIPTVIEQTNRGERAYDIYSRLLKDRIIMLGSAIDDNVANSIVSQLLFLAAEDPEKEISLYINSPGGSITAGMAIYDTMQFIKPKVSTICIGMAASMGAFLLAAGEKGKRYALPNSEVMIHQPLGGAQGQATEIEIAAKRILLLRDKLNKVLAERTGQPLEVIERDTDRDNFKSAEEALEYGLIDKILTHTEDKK
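Purified B. subtilis ClpP, 10 microg/mL final in Tris/HCl pH8 with KCl, BSA, glycerol and Tween-20, cleaved an Abz/nitrotyrosine-quenched decapeptide. Fluorescence (ex 320, em 430) was read at 0 and 20 min at room temperature. Delta was normalized to 5.8 microM ADEP and DMSO/no-enzyme controls.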
CtBP-E1A inh: qHTS Assay for Inhibitors of the CtBP/E1A Interaction | CtBP / adenovirus E1A interaction (AlphaScreen) | AlphaScreen GST-E1A/His-CtBP binding, 1536-well; stronger effect = lower value; control for the full effect not named in the record | AID 651724, 2012 | activity change, % (no concentration beside the values) | 0.49% of 340,000 active; in the data active means activity change below about -65%; inconclusive means about -30% to -65%; inactive means above about -30%; note: % is set by controls: 0 for no effect and ±100 for the full control effect; compound concentration not given in the record
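Protein mix (5X: 125 nM each GST-E1A, His-CtBP) was incubated with pinned compound 2 h at 37 deg C in dark, in 50 mM Tris pH 8.0 buffer with 300 mM NaCl. Glutathione donor and nickel acceptor beads followed; AlphaScreen signal read after 1 h.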
gsp antagonist: qHTS for Antagonists of gsp, the Etiologic Mutation Responsible for Fibrous Dysplasia/McCune-Albright Syndrome: qHTS; 0.4% of 340,000 active; Potency, µM (series often up to 76.9 µM), inactives show at the highest dose activity change, negative = inhibition, hits mostly inhibitors; gsp-mutant cells, cAMP HTRF, 30 min; control for the full effect not named in the record; active = falling curve of any shape with a large fitted effect; inconclusive = falling curve, mostly with a smaller effect; inactive = flat or rising curve; cell line not stated here;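 note: intracellular cAMP measured with PDE inhibitor Ro 20-1724 present during compound exposure; potency is the fitted concentration of half-maximal effect; % is set by controls: 0 for no effect and ±100 for the full control effect; nearly all actives have a fitted effect of over 65% in size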
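Cells, 2000/well, grown 16–24 h in DMEM 10% FBS with 0.5 mg/ml G418, then compounds plus […] (300 uM addition stock), 30 min at 37C. cAMP read by HTRF (cAMP-d2 and anti-cAMP antibody-K in lysis buffer) after 30 min RT.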
* = called active by the depositor; ? = inconclusive; . = no result given; & = joins results of further samples; [ ] = remark or other dose. No enrichment for hits; about 5.3% have a hit in one of these screens.

SMILES	gsp ag	Sfp PPTase inh	Menin MLL FP FL	TRPV1 potentiator	ClpP mod	CtBP-E1A inh	gsp antagonist
Cc1cc(C)c(C(=O)C(C)OC(=O)C2=COCCO2)cc1C (stereo not drawn)	-20.7%[15.4 µM]	5.5%	.	-7.8	-1.6%	5.3	7.9%
COc1ccc2[nH]c3c(=O)n(CCCCCC(=O)NCCC(C)C)c(=S)[nH]c3c2c1	?	0.0%	-1.9	-7.2	3.8%	.	-0.3%
CC(C)NC(=O)COC(=O)c1cncc(Br)c1	19.9%	30.7%[activator]	-8.8	-3.3	.	5.9	5.9%
O=C1NC(c2ccccc2)Oc2ccccc21 (stereo not drawn)	-1.1%[15.4 µM]	16.3%	6.8	7.8	0.0%	-7.0	1.8%
CCCc1ccc(S(=O)(=O)N2CCN(C(=O)CN3C(=O)NC(C)(C4CC4)C3=O)CC2)cc1 (stereo not drawn)	-49.3%[inhibitor]	.	.	.	-1.6%	1.5	.
O=C(NCC1CCCO1)C(=O)NCC(c1ccco1)N1CCN(c2ccccc2)CC1 (stereo not drawn)	-9.7%	11.6%	-0.2	-6.3	0.0%	-1.3	-20.2%
Cc1ccc(-c2nnc(N(C)C(=O)c3cccnc3)s2)cn1	27.5%	11.6%	-0.7	12.5	25.7%	-2.2	11.6%
Cc1ccc(-c2nn[nH]n2)o1	3.6%	25.1µM*	1.0	-1.0	0.8%	0.0	5.7%
Cc1ccccc1CN1CCN(CC(=O)NCc2ccccc2)C1=O	-7.7%	-1.6%	1.1	12.5	0.6%	1.9	-2.2%
O=C(COc1ccc(Cl)cc1)NNC(=O)c1ccc2c(=O)n3c(nc2c1)CCC3	?	.	.	0.4	1.3%	?	7.7%
O=C(Nc1ccc(N2CCOCC2)c(Cl)c1)c1ccc(Cl)cc1	4.0%[15.4 µM]	-5.2%	1.8	-21.8	-6.6%	7.1	-28.5%
CCn1nc(C)c(CN2CCc3c([nH]c4ccccc34)C2c2ccc(F)c(OC)c2)c1C (stereo not drawn)	-27.3%	-5.3%	-0.8	-4.2	.	-18.6	-12.7%
CCOc1ccc(NS(=O)(=O)c2ccc(C)c(C(=O)NCCCn3ccnc3)c2)cc1	0.6%[15.4 µM]	23.1%	0.8	-4.9	.	2.3	.
CCCCNc1ccc(C(CC(N)=O)NC(=O)Cc2cccc3ccccc23)cc1[N+](=O)[O-] (stereo not drawn)	.	16.1%	0.5	9.8	0.4%	6.8	4.9%
Cc1ccc(S(=O)(=O)Nc2cccnc2)c(C)c1C	-20.8%	4.6%	-0.5	10.0	-0.5%	.	-6.8%
O=C(NCC(c1ccc(F)cc1)N1CCOCC1)c1ccccc1F (stereo not drawn)	5.9%[15.4 µM]	18.8%	-2.4	.	.	2.7	12.1%
CC(C(=O)NCC1CCCO1)N(C(=O)c1snc(C(N)=O)c1N)c1cccc(F)c1 (stereo not drawn)	-48.8%[inhibitor]	-2.0%	0.3	13.2	?	-0.8	1.3%
Cn1c(=O)c2c(nc3n2CCCN3CCc2ccccc2)n(C)c1=O	?	9.7%	.	-5.7	-3.5%	3.4	-3.2%
O=C(CN(Cc1ccc(F)cc1)C(=O)c1csnn1)NCc1ccc2c(c1)OCO2	7.8%[15.4 µM]	12.1%	-0.6	8.8	.	0.0	-1.9%
COc1ccc(CN(C)C(=O)CCCNC(=O)c2ccc(Cl)cc2)cc1	0.9%[15.4 µM]	10.7%	-3.0	-13.4	.	3.3	.
Cc1oc(-c2ccc(Cl)cc2)nc1CSCC(=O)NC1CCN(Cc2ccccc2)CC1	-32.3%[inhibitor]	10.3%	0.9	-5.1	-21.9%	0.5	-2.2%
CC(=O)Oc1cc2c3c(c1)/C(=C1/SC(=S)NC1=O)C(=O)N3C(C)(C)C=C2C	-38.8%[inhibitor]	35.5µM*	8.7	-0.1	3.0%	.	?
O=C(COc1ccc(Cl)cc1)Nc1cc(S(=O)(=O)N2CCCCC2)ccc1N1CCCCC1	8.5%[15.4 µM]	2.8%	9.5	6.0	-0.1%	1.2	0.7%
COc1ccccc1NC(=O)COc1ccc(C(=O)OCC(=O)N2CCCC2=O)cc1OC	-4.8%	13.1%	1.1	8.4	-2.7%	6.7	5.9%
COc1ccc2[nH]c(C(=O)N3CCN(C)CC3)c(C)c2c1	-29.7%[15.4 µM]	10.8%	-1.0	2.3	.	2.9	17.1%
c1c2c(cc3sc(N4CCCCC4)nc13)OCO2	-6.2%[15.4 µM]	-25.9%	-1.8	-10.3	2.2%	-12.2	1.9%
COC(=O)c1cc(S(=O)(=O)NCCN2CCN(c3ccccc3F)CC2)c[nH]1	22.1%	19.1%	5.2	-1.3	0.2%	2.1	8.2%
COc1ccc(CCNC(=O)c2cc3c(=O)n4ccccc4nc3n(C3CCCCC3)c2=N)cc1	?	-2.0%	.	2.2	-20.6%	10.9	-16.3%
O=C(N/C(=C/c1cccs1)C(=O)N1CCOCC1)c1ccco1	13.8%	-21.2%	0.7	12.6	-1.6%	5.8	12.1%
O=C1c2ccccc2C(Nc2ccc(F)c(Cl)c2)N1c1ccccn1 (stereo not drawn)	-13.6%	8.5%	0.0	-3.3	-0.8%	4.4	-15.4%
Cc1csc(SCC(=O)Nc2sccc2C#N)n1	2.3%[15.4 µM]	6.6%	8.2	3.2	.	7.0	0.0%
COc1cc(OC)cc(C(=O)N[C@H](C(=O)NCCc2ccc(S(N)(=O)=O)cc2)C(C)C)c1	5.7%[15.4 µM]	12.8%	2.2	-2.1	.	0.0	13.3%
C(#CCN1CCOCC1)COC(c1ccccc1)c1ccccc1	-0.1%	2.0%	-1.4	-5.5	-0.4%	-1.7	-10.7%
C/C(=N\NC(=O)c1nnn(-c2nonc2N)c1CSc1ccccc1)c1ccc2c(c1)OCO2	-4.8%	28.4%	-1.9	-1.9	.	-3.1	5.3%
Cc1c(C(N)=O)cc([N+](=O)[O-])cc1[N+](=O)[O-]	13.3%[15.4 µM]	11.0%	3.6	.	-2.7%	-11.3	7.6%
CC(NC(=O)NC(=O)c1ccc(F)cc1)C1CC1 (stereo not drawn)	29.3%	.	.	.	-0.8%	3.5	10.2%
CC(NC(=O)N(Cc1ccccc1)Cc1ccc2c(c1)OCO2)(C(F)(F)F)C(F)(F)F	-0.8%	7.9%	0.7	-12.8	-0.9%	1.2	12.4%
C[C@@H]1COC(=O)[C@H](Cc2ccc(F)cc2)C/C=C\C[C@@H](CC(=O)NCCO)C(=O)N1	-0.2%	.	.	.	-0.5%	.	9.2%
Cc1nc2ccccc2cc1C(=O)NCc1ccccc1	-1.8%[15.4 µM]	.	.	.	1.2%	6.0	-5.1%
CC1Cc2nc(SCC(=O)NCc3ccco3)n(-c3ccccc3)c(=O)c2S1 (stereo not drawn)	-35.4%[inhibitor]	-0.1%	4.5	20.7	-2.8%	2.9	-4.1%
Cc1cc2sc(C(=O)O)c(C)c2s1	?	13.6%	-1.8	4.9	-0.9%	4.7	2.3%
COc1ccc(/C=N/n2cc(-c3ccccc3)nc2N)cc1	-28.3%	-1.2%	2.0	-13.0	-4.5%	-7.2	-5.7%
c1ccc2[nH]c(SCC3CCCCO3)nc2c1 (stereo not drawn)	6.1%[15.4 µM]	-20.9%	1.4	-13.9	.	-11.3	1.9%
CCc1ccc(C(=O)/C=C/NCc2ccc(F)cc2)cc1	-29.5%	6.4%	11.1	-13.6	9.0%	3.8	10.2%
O=C(O)Cc1coc2ccc3ccccc3c12	26.5%	-4.4%	-4.8	9.0	.	7.1	2.0%
CC(=O)NCc1ccc(S(=O)(=O)NC2CCN(Cc3ccccc3)CC2)cc1	-3.7%[15.4 µM]	18.7%	2.7	16.0	.	0.7	2.4%
O=C(Nc1ccc2c(c1)[C@H]1C[C@@H](CC(=O)N3CCOCC3)O[C@@H](CO)[C@H]1O2)C1CCOCC1	?	.	.	.	-0.2%	3.6	.
CC1O[C@@H](O[C@H](C)CC[C@@H](C)O)C(O)C[C@H]1O (stereo partly drawn)	.	.	.	-3.4	2.8%	7.1	4.4%
CC(C)C1Nc2c(C(=O)O)cccc2C(Nc2ccccc2C(=O)O)C1(C)C (stereo not drawn)	2.7%[15.4 µM]	-27.6%	-5.1	-14.0	.	.	3.7%
CCCCN(C(=O)c1cccc(-n2cccc2)c1)c1c(N)n(CCC)c(=O)[nH]c1=O	-3.3%[15.4 µM]	.	.	4.6	1.2%	-0.1	8.4%
CCCn1c(=O)[nH]c(=O)c2[nH]cnc21	.	9.1%&5.0%	5.7&2.0&0.6	3.2	-0.4%	0.0	1.7%
CCCCCC1C(=O)N2C=C(c3ccccc3)c3ccccc3N2C1=O (stereo not drawn)	-3.7%	.	.	.	0.4%	18.6	-27.4%
Cc1cc(Cl)ccc1OCCCC(=O)NC1CCN(C)CC1	-0.4%	-1.5%	0.6	9.6	-1.9%	-2.6	-3.7%
CCC(CC)NC(=O)c1n[nH]c(=O)c2ccccc12	-14.6%	20.1%	1.8	-17.5	-1.9%	1.6	-1.6%
O=C(NCc1ccco1)C1CCCN1C(=O)Nc1cccc(Cl)c1 (stereo not drawn)	-9.1%	13.7%	7.6	1.8	-0.3%	5.3	21.8%
O=S1(=O)NC(=NCc2ccccc2)c2ccccc21	1.0%	-7.5%	-1.0	14.5	3.3%	-3.2	-2.2%
Cc1cccc(CS(=O)(=O)Cc2ccc(C(=O)NCc3cccs3)o2)c1	5.3%[15.4 µM]	-12.9%	-4.4	5.2	.	0.0	-4.3%
O=C(CN1CCN(Cc2ccccc2)CC1)c1c[nH]c2ccccc12	-47.0%[inhibitor]	0.8%	1.0	6.1	-0.8%	-1.8	-1.4%
